GALR2 agonist: GALR2 (human) receptor agonism; O43603; GALR2-expressing cells, agonist activation read-out; activation, %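 (tested at 5 µM)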; 0.48% of 140,000 active;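 active = above mean plus 3 SD of all compounds, about 5% in these data, not always enough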;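 note: 0% = vehicle buffer wells and 100% = reference agonist at full effect; tested in CHO reporter cells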
HSV augment: HSV replication enhancement. HSV replication augmentation in cells, fold increase. maximum fold increase. 0.005% of 220,000 active. AID 1956;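 active = peak rise of 1.5-fold or more in the series; inconclusive = self-fluorescent or not available for retest; tested in PC3 cells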;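 note: first round at 10 µM; read as green reporter fluorescence; hits show the peak of a series up to 25 µM; 1 = signal of infected wells without compound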
PKD1 inh: blocks activity of human protein kinase D1; PKD1 kinase fluorescence polarization assay; inhibition, %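 (about 10 µM by stock and volumes)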; 0.056% of 200,000 active;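 active = inhibition of 50% or more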;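 note: controls were vehicle for no effect and a reference inhibitor for full effect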
Target sequence (Q15139 whole entry, looked up): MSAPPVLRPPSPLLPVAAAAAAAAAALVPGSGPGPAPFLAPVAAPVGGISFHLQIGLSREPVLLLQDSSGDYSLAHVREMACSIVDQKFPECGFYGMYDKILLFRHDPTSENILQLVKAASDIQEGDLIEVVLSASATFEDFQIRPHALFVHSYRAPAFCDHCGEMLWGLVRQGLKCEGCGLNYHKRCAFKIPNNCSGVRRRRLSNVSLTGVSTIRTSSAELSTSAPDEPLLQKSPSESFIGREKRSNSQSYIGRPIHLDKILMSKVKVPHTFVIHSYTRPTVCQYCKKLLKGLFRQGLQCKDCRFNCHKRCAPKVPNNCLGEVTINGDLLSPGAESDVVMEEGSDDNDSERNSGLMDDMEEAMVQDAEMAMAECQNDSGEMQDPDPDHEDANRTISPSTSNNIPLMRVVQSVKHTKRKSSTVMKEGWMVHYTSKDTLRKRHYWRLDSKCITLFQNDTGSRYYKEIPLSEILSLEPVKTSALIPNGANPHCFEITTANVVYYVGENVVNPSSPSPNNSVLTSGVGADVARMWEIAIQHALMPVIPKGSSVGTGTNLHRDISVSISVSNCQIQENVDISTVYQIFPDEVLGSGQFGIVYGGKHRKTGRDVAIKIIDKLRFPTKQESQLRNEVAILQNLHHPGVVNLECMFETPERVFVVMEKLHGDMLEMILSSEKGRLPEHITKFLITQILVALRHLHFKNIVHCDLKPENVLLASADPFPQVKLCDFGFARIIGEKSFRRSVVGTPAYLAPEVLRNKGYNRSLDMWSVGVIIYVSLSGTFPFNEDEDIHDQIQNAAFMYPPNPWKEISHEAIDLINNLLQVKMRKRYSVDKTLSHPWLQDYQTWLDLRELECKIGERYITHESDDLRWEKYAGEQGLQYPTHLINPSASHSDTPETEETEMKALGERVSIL
INS promoter inh: TRM-6 insulin promoter activity inhibition; AID 1273; inhibition, % at 2 µM; 0.9% of 130,000 active; TRM-6 cells (human fetal islet line), insulin promoter-eGFP reporter, imaging; reporter expression induced with tamoxifen;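 active = inhibition above the mean plus 3 SD, with well images judged a real hit on visual review, cut at about 60% in these data, passing the limit was not always enough; inconclusive = inhibition over the cutoff but images rejected on review; inactive = inhibition not above the cutoff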
RGS16-Gao HTS: modulates binding between human RGS16 and Galphao. O15492+P09471. bead-based flow cytometry RGS16-Galphao binding, fluorescence; actives lie on both sides. binding response (% of control), % at 10 µM. 0.38% of 220,000 active;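 active = below 25% or above 175%, edge rows of some plates excepted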;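 note: Galphao activated by GDP with aluminum fluoride before binding; 100% = wells without compound and 0% = beads without RGS; some results beyond the cut were filed as inactive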
INS promoter inh cell count: recorded beside INS promoter inh, whose call it bears; normalized cell count, %; measured here: cell count, toxicity; reference of the scale not given here;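 cells exposed to compound for 48 h; stained nuclei by imaging scaled within each plate; lower means fewer cells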
HSV augment primary fold: also measured in HSV augment; calls as there; fold increase; compound at 10 µM; measured here: primary screen fold increase 10 uM; tested in PC3 cells;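 GFP signal in the first replicate; 1 = infected wells without compound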
* = called active by the depositor; i = inactive; ? = inconclusive; · = not tested or not shown.

SMILES	GALR2 agonist	HSV augment	HSV augment primary fold	PKD1 inh	INS promoter inh	INS promoter inh cell count	RGS16-Gao HTS
COCc1cc(C)n(CC(=O)OC)c(=O)c1C#N	·	i	0.81	-2.4	0.0	83.1	103.4
O=C(OCc1nnc(-c2ccc(Cl)cc2)o1)c1ccncc1	-0.5	i	1	-1.8	-23.1	136.0	98.0
CCOCCCNC(=O)C(NC(=O)c1ccc(NC(C)=O)cc1)c1ccc(Cl)cc1 (configuration not stated)	-2.2	i	0.94	5.9	18.8	69.2	51.0
O=C(/C=N/O)NCCCN1CCOCC1	-1.1	i	1.16	-16.0	·	·	95.8
O=C(Nc1ccc(C(=O)N2CCCCC2)cc1)C1CCCCC1	-1.5	i	0.85	-2.7	43.6	92.8	104.5
COc1ccccc1N=Cc1c(O)c2ccccc2oc1=O	1.6	i	1.14	-3.3	-6.1	101.0	108.5
O=c1[nH]c(CNCc2cccnc2)nc2ccccc12	·	i	1.14	1.6	-16.7	127.8	102.3
N#CC1=C(N)OC(c2ccccc2)=C(C#N)C1c1ccc2c(c1)OCO2 (configuration not stated)	-0.2	i	1	-3.0	-54.5	56.9	104.2
CN1C(=O)/C(=C/c2ccco2)SC1=Nc1cccc(C(=O)O)c1	·	i	1.07	-3.7	·	·	192.0
COc1ccc(-n2c(-c3ccc(Br)cc3)c[n+]3c2CCC3)cc1	·	i	0.92	0.1	14.3	107.6	98.5
O=C(/C=C/c1ccco1)N1CCc2ccccc21	·	i	1.03	-0.3	-16.7	141.4	104.5
Cn1c(=O)oc2cc(S(=O)(=O)NC3CCN(Cc4ccccc4)CC3)ccc21	-0.6	i	0.99	-7.1	·	·	103.2
COc1cc(/C=C2\SC(c3ccc(C)cc3)=NC2=O)cc(OC)c1OC	-1.5	i	0.84	-8.0	·	·	97.1
O=S(=O)(c1ccc(Cl)nc1)N1CCCc2ccccc21	0.2	i	0.95	-2.5	·	·	100.7
Cc1ccc(N2CS(=O)(=O)/C(=C/N(C)C)C2=O)cc1	0.3	·	·	7.2	17.8	81.6	86.7
CCC(C)(C(=O)NC1CCCC1)N(Cc1cccs1)C(C)=O (configuration not stated)	0.3	i	0.99	-14.9	39.5	60.2	101.4
S=c1[nH]nc(-c2ccncc2)n1/N=C/c1cn(-c2ccccc2)nc1-c1ccccc1	·	i	0.92	·	·	·	96.3
O=S(=O)(c1ccccc1)C(/C=N\O)/C=C/c1ccccc1 (configuration not stated)	·	·	·	-5.5	-7.7	89.1	78.3
CCOc1cc(S(=O)(=O)n2nc(C)cc2C)ccc1F	-2.4	i	0.84	0.5	·	·	102.2
O=C(CSC1CCCCC1)Nc1ccccc1Br	-1.4	i	1.07	-12.1	-30.8	48.2	79.6
CN1CCN(S(=O)(=O)c2ccc3[nH]cc(C(=O)O)c(=O)c3c2)CC1	-0.2	i	0.84	-7.7	40.0	132.8	102.9
COc1ccc(-c2n[nH]c(=S)n2-c2ccc3c(c2)OCCO3)cc1	1.2	i	1.05	13.2	-63.1	79.6	89.0
CCc1ccc(OCC(=O)N2CCN(c3ccccc3F)CC2)cc1	·	i	0.96	7.2	·	·	94.7
O=C(COC(=O)C12CC3CC(CC(C3)C1)C2)NC12CC3CC(CC(C3)C1)C2	0.6	i	1.03	-4.2	31.6	81.4	100.1
CN(C)/C=C(\C#N)C(=O)Nc1ccc(F)c(Cl)c1	·	i	1.02	·	·	·	102.4
Further results
SMILES	GALR2 agonist	HSV augment	HSV augment primary fold	PKD1 inh	INS promoter inh	INS promoter inh cell count	RGS16-Gao HTS
Cc1cccc(Sc2c(C=O)c3ccccc3n2C)c1	-2.7	i	1.03	15.2	-3.6	110.2	106.7
O=C(Nc1ccccc1C(=O)O)/C(=C/c1ccc([N+](=O)[O-])cc1)NC(=O)c1ccc(Br)o1	·	i	0.89	-0.3	16.7	123.1	95.4
COc1cccc(CN(CC2CCCO2)S(=O)(=O)c2ccc(-n3cnnn3)c(OC)c2)c1 (configuration not stated)	·	i	1.09	-2.0	·	·	96.6
COc1ccc2cc(CN(Cc3ccco3)C(=S)NCC3CCCO3)c(=O)[nH]c2c1 (configuration not stated)	·	i	1.22	3.2	·	·	106.8
COc1ccc(N(C)S(=O)(=O)c2cccc3cccnc23)c(OC)c1	-1.4	i	0.81	-10.6	8.3	129.8	109.6
COc1ccc(N=CC2=C(O)CC(C)(C)CC2=O)cc1	-1.1	i	0.95	3.7	·	·	104.6
O=C(c1ccc(F)cc1)C1CCN(C(=O)NC2CCCCC2)CC1	-1.5	i	1.01	-6.2	57.1	69.1	95.9
CCOCCCNC(=S)N(Cc1ccco1)Cc1cc2cc3c(cc2[nH]c1=O)OCCO3	·	i	1.02	3.6	0.0	64.8	201.8
CCOC(=O)c1nnn(-c2nonc2N)c1-c1ccc(OC)cc1	-2.6	i	1.05	-13.5	50.0	94.3	95.3
CC1CCN(S(=O)(=O)c2cccc(-c3cn4cc(Cl)ccc4n3)c2)CC1	-2.9	i	0.987	-3.5	-31.2	115.2	100.8
COC(=O)c1cc(OC)c(OC)cc1NC(=O)Cc1cccs1	·	i	0.88	5.4	-48.1	64.6	98.5
Cn1c(Cc2cccs2)nnc1SC/C=C/c1ccccc1	-1.9	i	0.913	-8.8	4.1	52.5	97.1
COc1ccc(C(=O)Nc2ccc(S(=O)(=O)N3CCCCC3)cc2)cc1	-2.0	i	0.9	-1.6	-46.0	60.6	101.1
Cc1ccc(C(=O)Oc2cccc(NC(=O)c3ccccc3)c2)cc1C	-0.7	i	0.96	8.9	15.6	166.3	97.1
Cc1cc(Cl)ccc1C(=O)C1CCCN(C(=O)c2n[nH]c3c2CCCC3)C1 (configuration not stated)	·	i	1.13	-3.9	·	·	96.5
CCC(=O)Nc1ccc(-c2csc(NNC(C)=O)n2)cc1	0.2	i	1.21	0.3	·	·	131.8
CCCOP(=O)(OCCC)C(Nc1ccc(C(=O)O)cc1)c1ccccc1 (configuration not stated)	·	i	1.03	-6.0	-27.3	89.9	105.8
N#C/C(C(N)=O)=C1/SC(Cc2ccc(F)cc2)C(=O)N1c1ccccc1 (configuration not stated)	·	?	·	·	·	·	102.2
O=C(Nc1ccccc1Oc1ccccc1)c1cc([N+](=O)[O-])ccc1Cl	-0.8	i	0.77	-1.1	·	·	110.3
Cc1ccc(N2CC(C(=O)Nc3cccc(F)c3)CC2=O)cc1 (configuration not stated)	-3.2	i	0.72	-6.7	·	·	93.2
Cc1cccc(NC(=S)NC(=O)c2ccco2)n1	-1.2	i	0.89	-0.6	21.9	86.7	90.4
COC(=O)COc1ccc(S(=O)(=O)NCCC2=CCCCC2)cc1Cl	-0.4	i	0.65	-5.6	-23.3	51.4	104.3
Cc1cc(C(=O)NNC(=O)c2ccc(C(F)(F)F)cc2)no1	·	i	0.89	·	·	·	99.0
FC(F)(F)c1cnc(NNC(=S)Nc2ccccc2Cl)c(Cl)c1	-1.4	i	1.06	-2.2	·	·	102.2
CC(=O)Nc1cc(C(=O)O)ccc1S(=O)(=O)c1ccc(Cl)cc1	-0.6	i	0.89	12.3	·	·	62.6

Reprinted at random: 3 records from the list
SMILES	GALR2 agonist	HSV augment	HSV augment primary fold	PKD1 inh	INS promoter inh	INS promoter inh cell count	RGS16-Gao HTS
CC(=O)Nc1cc(C(=O)O)ccc1S(=O)(=O)c1ccc(Cl)cc1	-0.6	i	0.89	12.3	·	·	62.6
CCCOP(=O)(OCCC)C(Nc1ccc(C(=O)O)cc1)c1ccccc1 (configuration not stated)	·	i	1.03	-6.0	-27.3	89.9	105.8
CCC(=O)Nc1ccc(-c2csc(NNC(C)=O)n2)cc1	0.2	i	1.21	0.3	·	·	131.8

Continued.
SMILES	GALR2 agonist	HSV augment	HSV augment primary fold	PKD1 inh	INS promoter inh	INS promoter inh cell count	RGS16-Gao HTS
COc1ccc(NC(=S)NCCc2c[nH]c3ccccc23)cc1	-0.9	i	0.97	1.9	46.9	111.7	96.6
COc1cccc(NC(=O)Cc2nnc(SCC(=O)c3ccccc3)n2C)c1	-0.1	i	0.8	2.2	32.4	125.3	89.6
CCOP(=O)(OCC)/C(=N/OC(=O)c1ccccc1C)C(N)=O	0.6	·	·	-3.8	-50.0	113.0	107.5
Cc1ccccc1NC(=S)NC12CN3CN(CN(C3)C1)C2	·	i	1.04	9.7	40.0	66.9	93.9
O=C(O)Cn1cccc1C(=O)c1ccccc1	-1.4	i	0.93	-13.8	·	·	96.4
N#C/C(=C\c1ccc(N2CCCC2)c([N+](=O)[O-])c1)c1nc2ccccc2[nH]1	-1.1	i	0.85	-9.3	·	·	98.5
CCN(CC(=O)N1CCCCCC1)S(=O)(=O)c1ccc(Cl)cc1	-1.2	i	1.03	-6.3	-7.9	114.3	100.0
Cc1c(N=Cc2ccccn2)c(=O)n(-c2ccccc2)n1C	-0.6	i	0.88	-1.8	0.0	91.5	100.3
O=S(=O)(c1ccc(NC(=S)NCc2ccco2)cc1)N1CCCCC1	·	i	0.97	·	·	·	94.7
CCCn1c(=O)c2c(c3ccccc31)OC(C)C(=O)N2 (configuration not stated)	-1.4	i	0.95	5.3	·	·	107.4
O=C(CCN1CCCCC1)Nc1ccccc1	·	i	0.94	-6.0	·	·	104.2
Cc1cc(C)cc(N(CC(=O)Nc2ccccc2C(=O)N2CCOCC2)S(C)(=O)=O)c1	-0.6	i	1.06	8.6	-20.0	172.1	105.4
N#CC1=C2SCN(Cc3ccccc3)CN2C(=O)CC1c1ccccc1F (configuration not stated)	-2.3	i	0.94	-4.9	·	·	75.7
C=CCOc1ccc(/C(O)=C2\C(=O)C(=O)N(CCN(C)C)C2c2cccs2)cc1 (configuration not stated)	-0.5	i	0.96	19.2	·	·	118.0
COc1cccc(C(=O)NC(C)c2ccc(Br)cc2)c1 (configuration not stated)	-1.1	i	1.04	-1.5	16.7	108.2	68.6
CS(=O)(=O)N(CC(=O)NCc1ccncc1)c1ccc(F)c(Cl)c1	·	i	1.03	5.6	·	·	99.4
COc1cc(C2C(C#N)=C(N)N(Nc3ccccc3)C3=C2C(=O)CC(C)(C)C3)ccc1OCc1ccccc1 (configuration not stated)	3.2	i	0.93	-2.6	·	·	107.3
O=[N+]([O-])c1ccc(-c2nnc(CNC3CCCC3)o2)cc1	·	i	1.01	-2.8	17.6	92.4	108.1
CCOc1ccc(CCNc2nc3c(c(=O)n(C)c(=O)n3C)n2CC)cc1OCC	-1.3	i	1.21	-10.3	27.0	77.5	107.1
COc1ccccc1NC(=S)NNC(=O)c1nn(C)cc1Cl	-0.5	i	1.04	-2.5	13.3	102.6	-1.4

Among those listed so far, ten contain fluorine.
SMILES	GALR2 agonist	HSV augment	HSV augment primary fold	PKD1 inh	INS promoter inh	INS promoter inh cell count	RGS16-Gao HTS
CCOc1cc(S(=O)(=O)n2nc(C)cc2C)ccc1F	-2.4	i	0.84	0.5	·	·	102.2
CCc1ccc(OCC(=O)N2CCN(c3ccccc3F)CC2)cc1	·	i	0.96	7.2	·	·	94.7
CN(C)/C=C(\C#N)C(=O)Nc1ccc(F)c(Cl)c1	·	i	1.02	·	·	·	102.4
O=C(c1ccc(F)cc1)C1CCN(C(=O)NC2CCCCC2)CC1	-1.5	i	1.01	-6.2	57.1	69.1	95.9
N#C/C(C(N)=O)=C1/SC(Cc2ccc(F)cc2)C(=O)N1c1ccccc1 (configuration not stated)	·	?	·	·	·	·	102.2
Cc1ccc(N2CC(C(=O)Nc3cccc(F)c3)CC2=O)cc1 (configuration not stated)	-3.2	i	0.72	-6.7	·	·	93.2
Cc1cc(C(=O)NNC(=O)c2ccc(C(F)(F)F)cc2)no1	·	i	0.89	·	·	·	99.0
FC(F)(F)c1cnc(NNC(=S)Nc2ccccc2Cl)c(Cl)c1	-1.4	i	1.06	-2.2	·	·	102.2
N#CC1=C2SCN(Cc3ccccc3)CN2C(=O)CC1c1ccccc1F (configuration not stated)	-2.3	i	0.94	-4.9	·	·	75.7
CS(=O)(=O)N(CC(=O)NCc1ccncc1)c1ccc(F)c(Cl)c1	·	i	1.03	5.6	·	·	99.4

Screening results (PubChem BioAssay)
